Assay outcomes deposited in PubChem by several laboratories.
Vif A3G – inhibitors of Vif binding to APOBEC3G peptide, primary screen, biochemical, TR-FRET, GST-Vif 1-94, biotin-A3G peptide, dose response retest (AID 1117319). Virion infectivity factor (Human immunodeficiency virus type 1 group M subtype B (isolate …. inhibition, %; hits with a dose series show IC50 in µM. TR-FRET GST-Vif / biotin-A3G peptide binding; higher % means a stronger effect; test concentration not given here; strong numbers were not always called active. actives 0.57% (n = 260,000);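 active = above the screen mean plus three standard deviations and confirmed in dose response; inconclusive = results disagree or hit not tested in dose response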;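 note: Vif residues 1-94 fused to GST binding biotinylated APOBEC3G peptide 110-148; 0% = full assay without inhibitor and 100% = GST in place of GST-Vif; retest series ran down from 100 µM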
T cruzi repl – inhibitors of intracellular T. cruzi growth, primary screen, luminescence, NIH3T3 host cells; T. cruzi beta-gal in NIH3T3, 90 h; inhibition, % (concentration not given with the values); AID 1885, 2009; actives 1.4% (n = 300,000);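 active = mean inhibition across valid replicates above about 55%, limit read from the data; inconclusive = mean below that limit but half or more replicates reach it; inactive = mean below it, under half of replicates reach it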;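 note: signal also drops with host cell toxicity which is not excluded here; 0% = plate median of DMSO wells and 100% = zero luminescence signal; higher percent means less beta-gal luminescence so fewer parasites; stock transfer was 50 nL into about 50 µL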
Beta cell apopt – inhibitors of cytokine-induced beta cell apoptosis, primary screen, luminescence; AID 435005, 2010; INS-1E cytokine-induced death, ATP luminescence, 48 h; percent of positive-control rescue, neutral wells zero; actives 0.8% (n = 300,000); protection from apoptosis, % (concentration not given with the values);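 active = all replicates at 75% or more, or half of them and the mean; inconclusive = half reach 75% but not the mean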;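 note: 0% = cytokine-treated negative control wells and 100% = positive control rescue; higher means more ATP so stronger rescue from cytokine killing; wells of about 40 µL received 100 nL stock; the first replicate is given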
Calb FLC – C. albicans growth inhibition with fluconazole, primary screen, CaCi-2 strain, Alamar Blue fluorescence; actives 0.57% (n = 300,000); AID 1979, 2009; C. albicans CaCi-2 (fluconazole-resistant clinical isolate) + fluconazole, 48 h; growth inhibition, % (concentration not given with the values);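 active = most replicates above 75%; inconclusive = exactly half above 75%; inactive = most below 75%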;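 note: all wells also contain fluconazole at 8 µg/ml as a sub-toxic cotreatment; 0% = median of DMSO wells and 100% = median of geldanamycin control wells; wells of about 8 µL received 7.5 nL stock; the first replicate is given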
LANA-H2A inh – blockers of LANA interaction with H2A/H2B – biochemical, FP readout, HTS, primary screen | actives 0.6% (n = 320,000) | Protein LANA1 (Human herpesvirus 8 type P (isolate GK18)), Q9QR71 | inhibition, % (no concentration beside the values) | cell-free LANA-H2A/H2B peptide, fluorescence polarization; in the data active = inhibition mostly above about 10%, no sharp cut-off; inactive = mostly below about 6.7%;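 note: stock transfer was 7.5 nL into about 10 µL; 0% = median of vehicle wells and 100% = median of positive control wells; one replicate is shown; the record names a cut of 25% in any replicate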
Target sequence (Q9QR71 whole entry, looked up): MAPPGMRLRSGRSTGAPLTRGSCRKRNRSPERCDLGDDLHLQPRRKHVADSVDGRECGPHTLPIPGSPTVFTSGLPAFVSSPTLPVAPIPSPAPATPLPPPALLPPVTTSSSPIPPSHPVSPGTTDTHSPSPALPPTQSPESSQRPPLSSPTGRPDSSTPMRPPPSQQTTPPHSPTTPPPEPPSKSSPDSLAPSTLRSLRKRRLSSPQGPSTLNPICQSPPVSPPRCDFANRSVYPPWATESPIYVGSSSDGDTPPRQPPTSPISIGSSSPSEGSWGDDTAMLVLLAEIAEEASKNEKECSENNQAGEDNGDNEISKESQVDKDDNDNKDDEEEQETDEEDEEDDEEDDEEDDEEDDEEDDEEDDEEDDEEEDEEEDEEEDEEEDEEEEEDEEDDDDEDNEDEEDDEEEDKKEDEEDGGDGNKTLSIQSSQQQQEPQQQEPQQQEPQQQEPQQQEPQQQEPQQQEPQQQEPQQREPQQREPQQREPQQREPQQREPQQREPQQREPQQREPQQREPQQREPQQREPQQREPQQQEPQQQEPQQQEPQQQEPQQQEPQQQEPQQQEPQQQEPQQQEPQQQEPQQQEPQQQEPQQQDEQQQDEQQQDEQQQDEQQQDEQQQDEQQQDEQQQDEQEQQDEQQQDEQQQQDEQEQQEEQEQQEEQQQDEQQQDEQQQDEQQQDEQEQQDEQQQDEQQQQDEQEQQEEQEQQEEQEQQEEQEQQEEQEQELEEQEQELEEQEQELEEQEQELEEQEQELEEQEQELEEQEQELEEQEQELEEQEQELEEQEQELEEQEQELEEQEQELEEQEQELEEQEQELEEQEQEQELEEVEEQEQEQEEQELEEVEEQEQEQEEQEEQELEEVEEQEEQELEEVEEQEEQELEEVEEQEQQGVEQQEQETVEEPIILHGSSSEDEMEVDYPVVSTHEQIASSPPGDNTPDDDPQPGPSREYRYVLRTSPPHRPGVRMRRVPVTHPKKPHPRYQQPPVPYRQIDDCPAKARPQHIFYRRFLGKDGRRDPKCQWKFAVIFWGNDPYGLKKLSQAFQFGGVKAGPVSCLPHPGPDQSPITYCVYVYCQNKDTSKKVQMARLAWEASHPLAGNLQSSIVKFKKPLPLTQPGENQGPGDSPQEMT
RanGTP-Imp inh – inhibitors of RanGTP-importin-beta interaction, primary screen, biochemical, FRET, CFP-Ran, YFP-importin-beta, homogeneous. cell-free CFP-Ran/YFP-importin-beta FRET ratio. inhibition, % (test concentration not listed). actives 1.1% (n = 300,000). AID 2216, 2009;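 active = most replicates above 15%; inconclusive = exactly half above 15%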;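 note: 0% = DMSO wells and 100% = Ran loaded with GDP instead of GTP; wells of about 40 µL received 100 nL stock; the first replicate is given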
AF4-AF9 inh – inhibitors of AF4 peptide binding to AF9, primary screen, biochemical, AlphaScreen, biotin-AF4 peptide, FLAG-AF9, single point. Protein AF-9 (Homo sapiens), P42568. actives 0.47% (n = 350,000). AID 651704, 2012. inhibition, % at 10 µM;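 active = every replicate reaching a set inhibition limit, whatever the replicate mean, cut at about 25% in these data; inconclusive = mean inhibition reaches that limit but some replicates miss it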;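 note: 0% = plate neutral control median and 100% = total signal loss; the record names both 10 and 1 µM as test concentration; the first replicate is given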
A1 inh – caspase 3/7 activation in MEF A1-2A-BIM cells, primary screen, A1 inhibitor project, cell-based, luminescence, HTS; Caspase-Glo 3/7 luminescence, 3 h; percent of clofoctol response, vehicle zero; AID 2462, 2010; caspase activation, % (concentration not given with the values); actives 0.066% (n = 330,000);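 active = over half of replicate activation scores above 10%, or exactly half above 10 with the replicate mean above 10; inconclusive = replicate mean below 10 yet half the replicates above 10; inactive = over half of replicates below 10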;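 note: wells of about 30 µL received 50 nL stock; many hits fall short of the cut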
The depositor's hits bear a star; ? = inconclusive; / = no result given.

SMILES	Vif A3G	T cruzi repl	Beta cell apopt	Calb FLC	LANA-H2A inh	RanGTP-Imp inh	AF4-AF9 inh	A1 inh
C=CCOC(=O)c1sc(NC(=O)c2ccco2)nc1C	0%	-4	19	79*	-2.2	5.6	/	-4.1
Cc1ccc(COn2c(-c3ccc(Cl)cc3Cl)nc3ncccc32)cc1	1%	12	14	5	3.5	1.2	/	1.0
CCc1ccc(N2C(=O)C3ON(c4ccccc4)C(c4ccco4)C3C2=O)cc1 (stereo not drawn)	-3%	-12	-3	6	0.0	-3.8	/	-0.3
OC(c1ccc2c(c1)OCO2)c1nccc2ccccc12 (stereo not drawn)	8%	4	-14	-23	-1.1	-4.0	-39	0.1
Cc1cccc(OCCCC(=O)Nc2ccc(Cl)c(S(=O)(=O)N3CCOCC3)c2)c1	-4%	/	-2	/	1.1	/	-0.1	0.1
CCSc1nc(-c2ccccc2)nc(C(Cl)Cl)n1	1%	0	94*	-33	5.9	-1.4	6.0	1.1
Cc1nc2c(C(=O)N3CCN(C)CC3)cnn2c(C)c1Cc1ccc(Cl)cc1	11%	0	9	2	-0.1	?	/	0.2
COc1cc(OC)cc(C(=O)Nc2ccn(C)n2)c1	4%	/	3	/	/	/	-0.7	-3.3
Cc1nnc(N/N=C/c2ccc([N+](=O)[O-])cc2)n1N	/	-21	6	2	2.0	2.3	-3.4	-0.2
O=C(c1ccc(F)cc1)N1CCN(c2ccc([N+](=O)[O-])cc2-n2cccc2)CC1	/	4	-1	15	-5.5	-1.0	8.5	0.8
Cc1scc(C(=O)N/N=C/c2ccc([N+](=O)[O-])o2)c1C	/	39	39	90*	-0.8	0.5	1.0	0.3
N#CC1=C(N)Oc2c(oc(CO)cc2=O)C1c1cccs1 (stereo not drawn)	27%	-12	-5	17	-1.9	3.2	/	0.4
CCN(CC)CCN1C(=O)C2C(C(=O)Nc3ccc(C(C)C)cc3)C3C=CC2(O3)C1C(=O)NC1CCCCC1 (stereo not drawn)	/	9	-1	-3	-3.7	-4.2	0.2	-0.2
O=C1C=C(c2ccoc2)N2CCC[C@H]2C1	/	/	-6	/	-1.2	/	-3.5	1.1
Cc1cccc(NCc2nc(SCC(=O)Nc3ccccc3Br)n[nH]2)c1	-1%	-11	/	1	-2.5	-0.1	4.4	-0.1
CC1Sc2ccc(S(=O)(=O)CCC(=O)Nc3ccc(C(C)C)cc3)cc2NC1=O (stereo not drawn)	/	14	-2	9	-1.0	-1.9	3.1	-0.9
COc1ccccc1NC(=O)c1ccc2nsnc2c1	/	-11	1	3	5.2	-0.2	1.9	-6.3
O=C(CN1CCN(S(=O)(=O)/C=C/c2ccccc2)CC1)NCC(F)(F)F	/	-16	2	-2	3.5	-5.4	0.4	0.0
Cc1cccc(C(=O)N2CCN(S(=O)(=O)N3CCCCCC3)CC2)c1	/	1	3	-7	4.1	-1.5	-3.8	-0.1
O=C(CCC(=O)OCC(=O)c1ccccc1)NC1CCCCC1	12%	-17	-2	-19	-1.5	1.4	/	-0.5
Cc1ccc(-c2nc(-c3ccccc3)no2)c(Cl)c1	9%	-13	/	-6	-0.3	-2.2	-6.4	-8.0
COc1ccccc1Nc1nc(N)nc(CSC(=S)N2CCC(C)CC2)n1	1%	37	0	13	-2.1	-1.7	3.1	0.0
COc1ccc(Br)cc1/C=N/NC(=O)CNC(=O)/C=C/c1ccccc1	4%	24	-6	-1	0.3	-1.8	/	-0.8
O=C(O)c1ccc2cc(-c3ccccc3)[nH]c2c1	/	-24	-5	-1	0.2	3.2	-4.2	-7.9
O=[N+]([O-])c1ccc(Sc2cccc[n+]2[O-])c2nonc12	?	43	/	1	/	-2.4	/	/
Cc1cc(=O)[nH]c(SCC(=O)N2CCN(S(=O)(=O)c3ccccc3)C2)n1	-5%	-3	-4	-7	-1.8	5.7	-0.1	0.5
COc1ccc(/C=C2/C(=O)N(c3ccccc3)N=C2C)cc1Br	13%	6	-2	-19	-2.2	-1.9	3.3	2.1
O=C(COC(=O)c1ccccc1F)NNC(=O)c1ccccc1	0%	-18	/	-3	-1.4	-2.9	0.0	0.8
c1csc(C2Nc3ccccc3-c3nc4ccccc4n32)c1 (stereo not drawn)	/	-8	10	5	2.8	-0.1	/	0.3
COc1cccc(-c2nc(-c3ccccc3)c(-c3ccccc3)[nH]2)c1OCC(=O)O	/	-6	1	-10	-1.6	-3.5	-2.2	1.0
CC(C)C1OC2c3cccc4cccc(c34)C2N1c1ccccc1 (stereo not drawn)	-2%	3	-8	-8	1.0	?	/	1.9
COc1ccc(S(=O)(=O)N2CCCC(C(=O)N3CCCC3)C2)cc1OC (stereo not drawn)	0%	-11	/	0	-4.0	3.4	-9.8	1.2
Cc1cccc2cc(CN(Cc3ccco3)C(=O)c3cccs3)c(=O)[nH]c12	-1%	2	2	-1	1.0	?	/	-0.4
COCCn1c(SCC(=O)Nc2cc(C)on2)nnc1-c1ccco1	22%	-1	-4	8	-1.7	-0.3	/	-1.4
CN(C)c1ccc(/C=C(/C#N)C(=O)NCc2ccccc2)o1	4%	0	0	8	-7.0	/	/	-0.8
NC(=O)c1ccc(C(F)(F)F)n(Cc2ccc(Cl)cc2)c1=O	1%	7	2	13	-4.0	6.4	/	0.3
Cc1ccc(S/C=C\C(=O)c2ccccc2)cc1	10%	16	/	11	3.2	-3.1	1.4	-5.5
O=C(COc1nc2ccccc2nc1N1CCOCC1)N1CCc2ccccc21	-26%	-6	/	-2	/	0.9	/	/
COc1ccc(OCC(=O)NNC(=O)C(=O)N2CCCC2)cc1	5%	-26	-6	-8	-1.2	-1.8	/	0.1
Cc1ccc2c(c1)CC1(CN2C)C(=O)OC(C)(C)OC1=O	24%	-6	/	-8	/	-2.1	/	/
Cc1cc(C)n2nc(SC(C)C(=O)Nc3ccccc3F)nc2n1 (stereo not drawn)	-7%	/	-3	/	2.8	/	-6.3	0.9
CC(=O)N1CCN(S(=O)(=O)c2c(F)cc(F)c(Cl)c2F)CC1	0%	7	-8	-10	/	-3.2	-0.1	-0.1
CCOC(=O)CNC(=O)c1cn(CC)c(=O)c2cc(OC)c(OC)cc12	0%	-2	5	0	-4.1	0.9	/	1.5
O=C(NCCc1cccc(Cl)c1)c1cc2ccccc2oc1=O	-10%	-4	-23	4	3.1	4.6	/	-0.1
COc1cc(OC)c(C(=O)OCC(=O)c2ccc3c(c2)NC(=O)CO3)cc1OC	/	/	1	/	-1.6	/	-1.5	-2.2
Cc1cccc(N2CCN(C(=S)Nc3ccc4nc(N5CCN(C)CC5)cc(C)c4c3)CC2C)c1 (stereo not drawn)	3%	51	10	38	-0.5	-2.2	-0.1	0.2
COc1ccc(NC2CS(=O)(=O)CC2NCc2ccco2)cc1 (stereo not drawn)	63µM*	3	7	2	1.1	1.6	/	-0.8
O=C(CCN1C(=O)c2ccc([N+](=O)[O-])cc2C1=O)Nc1cccc(O)c1	/	-17	-4	-6	-1.2	2.5	/	1.4
COc1ccc(-c2nc(C(N)=O)c3[nH]c(=O)n(-c4ccccc4OC)c3n2)c(OC)c1	0%	-2	-3	2	-0.4	-0.4	2.6	-0.1
Cc1ccc2c(c1)N(CCC(=O)NC(C)C)C(=O)CO2	-7%	-1	-2	-4	-0.5	1.5	/	0.9
Cc1nc2ccccc2n1CCOc1ccc([N+](=O)[O-])cc1	/	-8	-1	-5	0.6	3.8	2.5	-0.5
COc1ccc(N(CC(=O)Nc2cccc(N(C)S(C)(=O)=O)c2)S(=O)(=O)c2ccccc2)cc1Cl	3%	15	7	26	1.2	6.3	1.4	1.7
CCOc1ccccc1NC(=O)c1ccc2nccnc2c1	?	-11	/	-2	3.6	-0.1	/	0.5
O=c1[nH]c2cccc(Cl)c2n(CCNc2ncc(C(F)(F)F)cc2Cl)c1=O	-2%	10	10	22	3.1	2.4	/	-0.3
COC(=O)Cn1cnc2ccccc2c1=O	7%	-12	-4	-6	6.5	2.8	/	-1.0
O=C1c2cccc(O)c2C(=O)c2c(O)cc(CO)cc21	/	-11	-1	24	0.8	-22	/	0.2
Cc1ccc(N2CC(C(=O)NCc3ccccn3)CC2=O)cc1 (stereo not drawn)	-6%	1	/	27	-0.6	-1.8	/	0.4
CCCCNc1cc(=O)oc2ccccc12	-1%	4	2	-8	4.3	-1.8	/	0.2
Cc1csc(=O)n1CC(=O)OCc1nnc(-c2ccc(Cl)cc2)o1	-1%	6	-7	/	-2.9	-0.1	-27	0.5
CCOC(=O)N1CCC(NC(=O)c2oc3c(F)cccc3c2C)CC1	/	-3	2	-3	-2.8	-0.8	-3.8	-0.5

(listing goes on)
SMILES	Vif A3G	T cruzi repl	Beta cell apopt	Calb FLC	LANA-H2A inh	RanGTP-Imp inh	AF4-AF9 inh	A1 inh
O=C(NCc1ccco1)C12CN(Cc3ccccc3)CC1C(c1ccc([N+](=O)[O-])cc1)=NO2 (stereo not drawn)	?	10	-4	8	-3.1	-3.6	6.0	0.7
Cc1ccc(C(=O)N/C(=C/c2cccs2)C(=O)NCc2ccco2)cc1	-2%	1	-1	-7	-2.6	4.4	-0.3	-0.3
CCOC(=O)c1ccccc1NC(=O)c1ccccc1NS(C)(=O)=O	-8%	2	-1	-7	3.8	-0.8	/	0.2
Cc1cccc2cc(CN(Cc3ccco3)C(=O)c3ccco3)c(=O)[nH]c12	/	-1	-1	-1	-2.2	?	4.0	0.2
CC(=O)N1CCN(S(=O)(=O)c2cccc(C(=O)NNC(=O)Cn3nc(C)cc3C)c2)CC1	-3%	/	-7	/	-2.2	/	-2.1	0.4
CC(OC(=O)c1ccc(NS(=O)(=O)c2ccc3[nH]c(=O)[nH]c3c2)cc1)C(=O)Nc1ccc(Cl)cc1 (stereo not drawn)	/	-10	-10	32	-0.7	-2.0	0.5	0.2
Cc1cc(=O)[nH]c2ccc(S(=O)(=O)Nc3ccc(O)cc3)cc12	/	-11	/	27	-2.1	-0.1	-3.8	-0.7
CCOc1ccc(N2CC(C(=O)Nc3ccc(F)cc3F)CC2=O)cc1 (stereo not drawn)	15%	3	-7	?	1.6	-1.3	/	-0.3
COc1cccc(OCc2cc(C(=O)N3CCN(c4ccccc4OC)CC3)no2)c1	11%	6	0	2	0.7	2.3	1.9	-4.0
COc1cc(OC)c(OC)cc1/C=N/Nc1ncnc2c1[nH]c1ccccc12	/	7	12	0	3.5	?	-3.8	-0.4
Cc1cc(C(=O)CSc2nnc(-c3ccco3)o2)c(C)n1-c1ccc2c(c1)OCCO2	14%	1	-3	3	3.1	-1.3	/	0.3
